NPYLR7 agonist: activates Aedes aegypti NPYLR7 receptor; AID 1259423; 270,000 tested, 0.15% active; HEK293T NPYLR7/Galpha15, GCaMP6s calcium fluorescence; activation, % at 10 µM; in the data active means activation above about 40%;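 further: 0% = vehicle and 100% = reference agonist at the receptor; some compounds past the cut are filed as inactive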
NPYLR7 agonist max-min: recorded beside NPYLR7 agonist, whose call it bears; activation, %; measured here: Max-Min RFU normalised activation; some inactives read as strong as hits;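 span of the calcium signal over five minutes; 0% = vehicle and 100% = native peptide agonist; compound fluorescence can raise it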
Active calls of the source: *; & = joins results of further samples. This is a subset; the hit share may differ from the screen's.

SMILES	NPYLR7 agonist	NPYLR7 agonist max-min
CCOC(=O)C(C)Sc1ccc2nnc(CCNS(=O)(=O)c3ccccc3)n2n1 (stereo not given)	4.9	-4.7
O=C(c1cccc(Cl)c1)N(CC(=O)N1CCc2sccc2C1COc1cccc(F)c1)CC1CCCO1 (stereo not given)	-0.8	3.6
O=C(c1cn(CCc2ccccc2)nn1)N1CCCC2(CCCN(Cc3ccccc3)C2)C1 (stereo not given)	8.8	4.2
CC1CCCN(C(c2ccc([N+](=O)[O-])cc2)C2Sc3nc(-c4ccco4)nn3C2=O)C1 (stereo not given)	-1.5	-3.1
C/C=C/C=C/CCC(=O)CC(O)CCO (stereo not given)	-7.3	-16.8
CN(Cc1ccccn1)c1cc(C(F)(F)F)nc(-c2ccccn2)n1	6.1	6.0
O=S(=O)(NCCOc1ccc(-c2cccs2)nn1)c1cccnc1	-0.7	-1.4
CC(Cl)C(=O)N1CCN(c2nccc(-c3ccco3)n2)CC1 (stereo not given)	-6.6	-11.3
CCn1c(C2CCCN(C(=O)c3cc4c(nc3OC)CCC4)C2)n[nH]c1=O (stereo not given)	0.5	-8.4
CCOc1cccc2cc(C(N)=O)c(=Nc3ccc(OC)cc3)oc12	-7.5	-10.9
CC(=O)Nc1c(C)nc2cc(C)ccn2c1=O	4.4	1.3
O=C(Cc1c[nH]c2ccc(Cl)cc12)NCC1(O)CCSC1 (stereo not given)	2.3	5.2
COc1cccc(CNC(=O)Cn2nc(C)cc2C)c1	-1.7	-5.6
COc1ccc(-c2coc3cc(OC)cc(OC)c3c2=O)cc1	-9.9	-13.8
CC(c1ccccc1)N(Cc1nc(C(=O)NCCN2CCOCC2)co1)Cc1ccc(F)cc1F (stereo not given)	18.3	28.8
CCC(C)CN(CC(=O)N1CCc2sccc2C1COc1ccccc1F)C(=O)c1ccc(OC)cc1 (stereo not given)	-1.7	2.8
Cc1nc2ncc(-c3cc(NCCN(C)C)nc4[nH]ccc34)cc2[nH]1	-9.7	-15.0
CC(C)c1ccc(NC(=O)C(C2CCCC2)N2CCN(C(=O)CCc3ccccc3)CC2)cc1 (stereo not given)	0.6	7.0
CC(C)C(CO)NC(=O)CC(=O)NC(CO)C(C)C (stereo not given)	-1.2	-2.7
C=CCn1cnc2c(-c3cccc(F)c3)csc2c1=O	-2.9	-5.7
O=C(c1c(Cl)cccc1Cl)N1CCC(n2nc(-c3ccccc3)cc2-c2ccccc2)CC1	25.6	15.1
CCC(COC)NCc1cnc(SC)nc1N1CCN(c2ccc(F)cc2)CC1 (stereo not given)	0.4	-4.9
CSc1ccc(C2CC(c3ccc(Cl)cc3)=Nc3ncnn32)cc1 (stereo not given)	92.4*	75.3*
COc1ccc(CCNC(=O)N2CCN(C(=O)C34CC5CC(CC(C5)C3)C4)CC2)cc1OC	-0.1	0.2
Cc1c([N+](=O)[O-])c([N+](=O)[O-])nn1CC(=O)Nc1ccccc1C(F)(F)F	-0.4	-3.3
COc1ccc(NC(=O)CN2CC3CCC(C)(C2)C3(C)C)cc1 (stereo not given)	-7.5	-9.5
O=c1c2cnc(N3CCCCC3)nc2ccn1CCN1CCOCC1	1.1	1.0
CC(C)C(=O)N1CCC1(C)C(=O)Nc1ccc(-n2cccc2)cc1 (stereo not given)	4.9	1.0
O=C(CCc1ccccc1)N1C[C@@H](CO)[C@@H]2Oc3c(F)cccc3[C@@H]21	3.2	3.9
Cc1ccc(-n2c(=O)[nH]c3c(C(N)=O)nc(-c4ccc(C(C)C)cc4)nc32)cc1C	-4.5	-6.3
Cn1nc([N+](=O)[O-])c(C(C#N)c2ccccn2)c(Cl)c1=O (stereo not given)	0.4	2.7
O=C(CN1CCOC(c2ccc(Cl)cc2)C1)NCc1ccccn1 (stereo not given)	-12.5	-13.1
c1ccc(-c2ncc(Cn3ccnc3-c3ccccn3)s2)cc1	3.5	2.3
O=C(N[C@@H]1CCCc2ccccc21)C1CC=CCC1C(=O)N1CCN(c2ccccn2)CC1 (stereo not given in full)	-13.0	-22.3
FC(F)(F)c1ccccc1C1NCCS1 (stereo not given)	0.4	6.8
O=C1CN(S(=O)(=O)c2ccc(Cl)cc2)CC(Cn2c3ccccc3c3ccccc32)O1 (stereo not given)	0.2	16.3

Full records as entered above:
Cn1nc([N+](=O)[O-])c(C(C#N)c2ccccn2)c(Cl)c1=O (stereo not given) is listed as NPYLR7 agonist: 0.4; NPYLR7 agonist max-min: 2.7
O=C1CN(S(=O)(=O)c2ccc(Cl)cc2)CC(Cn2c3ccccc3c3ccccc32)O1 (stereo not given) is listed as NPYLR7 agonist: 0.2; NPYLR7 agonist max-min: 16.3
O=c1c2cnc(N3CCCCC3)nc2ccn1CCN1CCOCC1 is listed as NPYLR7 agonist: 1.1; NPYLR7 agonist max-min: 1.0

New compounds follow
SMILES	NPYLR7 agonist	NPYLR7 agonist max-min
CC(C)c1ccc(CC(=O)N2CCC2(C)C(=O)NS(=O)(=O)c2cccc(Cl)c2)cc1 (stereo not given)	3.5	2.7
O=C(Nc1cnc2n1CCCC2)c1ccc(Cn2cccn2)o1	-0.5	-1.7
Oc1ccc(-c2[nH]ncc2Oc2ccc(-c3ccccc3)cc2)c(O)c1	1.5	4.1
CCC(C)(C)NS(=O)(=O)c1ccccc1C(F)(F)F	3.4	1.0
COC(=O)C(Cc1ccccc1)NC(=O)c1ccc(-n2nc(-c3cccc(C)c3)cc2N)cc1 (stereo not given)	-8.9	-9.8
Cc1c(Br)c([N+](=O)[O-])nn1CC(=O)NCC(C)C	-13.4	-25.5
CCc1[nH]c2c(CNCc3ccc4nonc4c3)cc(F)cc2c1C	-1.8	-9.0
O=[N+]([O-])c1ccccc1S(=O)(=O)n1cnc2ccccc21	-0.9	17.1
CCCCCCCCCCCCS(=O)(=O)CC(C)C(N)=O (stereo not given)	4.6	0.4
COc1cccc(C2c3[nH]c4ccccc4c3CCN2Cc2cc3c(cc2Cl)OCO3)c1 (stereo not given)	-0.5	-9.6
NC(=S)N/N=C\C1=C(N2CCOCC2)C(=C/c2cccc([N+](=O)[O-])c2)/CC1	-1.2	-6.6
Cc1sc2ccccc2[n+]1C	2.9	1.4
C=CCn1nc(C(=O)O)c2c1CCC(NCc1c(F)cccc1Cl)C2 (stereo not given)	19.8	11.5
O=C1C2C=NN=C2N=C(SCc2cn3cccnc3n2)N1c1ccccc1 (stereo not given)	-1.2	-4.4
CCCCC1=NN2CCS(=O)(=O)N=C2S1	2.3	0.4
N#Cc1ccc(N=c2oc3ccc(Br)cc3cc2-c2nc3ccccc3[nH]2)cc1	25.3	16.0
CC1(c2ccccc2)CCC(C(=O)O)C(C(=O)O)C1 (stereo not given)	1.2	0.4
CN(CCc1ccccc1)C1(C(=O)N2CC(O)C2)Cc2ccccc2C1	5.5	2.3
CN(C)CCNS(=O)(=O)c1cccc2nsnc12	21.9	26.5
CCOC(=O)c1ccc2c(c1)nc(SCc1cccc(Cl)c1)n2Cc1ccc(C(F)(F)F)cc1	19.6	14.3
CCOC(=O)c1nn(Cc2ccccc2)c2c1CN(Cc1cccn1-c1cccnc1)CC2	-22.9	-23.8
Cc1cc(NC(=O)CSc2nc(=O)n(N3CCN(C)CC3)c3c2CCC3)no1	0.7	-3.4
COc1ccc(-c2cc(C(=O)NCCCN3CCOCC3)c(C)n2-c2ccccc2Cl)cc1	-1.9	6.5
Cc1nc(Nc2ccc(NS(=O)(=O)c3cccc(Cl)c3)cc2)cc(-n2ccnc2)n1	-11.8	-16.4
CCOC(=O)N1CCC(NCc2nc(C)c3c(n2)CCCC3)CC1	0.5	-4.2
Cc1cccc(CN(C(=O)c2ccc(F)cc2)C2CCC(NC(=O)C3CCN(C(=O)COc4ccccc4)CC3)CC2)c1 (stereo not given)	3.8	15.4
CCOC(=O)c1ccc(OC2CC3CCC(C2)N3C(=O)c2ccc(CSc3nc4ccc([N+](=O)[O-])cc4s3)cc2)cc1 (stereo not given)	21.1	11.8
COc1ccc2[nH]cc(C3=CCN(C(=O)C4CCCCC4)CC3)c2c1	-0.9	0.7
CCN1C(=O)C2(CC(=O)N(CCOc3ccccc3)C2=O)c2cc(OC)ccc21 (stereo not given)	11.4	0.2
CN(C)CCNC(=O)C1(C)Cc2c(-c3cccc(C(F)(F)F)c3)ccnc2O1 (stereo not given)	0.7	-2.7
CS(=O)(=O)N1CCCCCC1C1CCN(c2ncnc3ccsc23)CC1 (stereo not given)	7.4	2.6
CS(=O)(=O)c1cccc(-c2cc3c(cn2)ncn3Cc2cccnc2)c1	4.5	3.7
CCOc1cccc(/C=C/C(=O)O)c1OC1CCCCC1	-3.6	-4.7
Cc1nc2sccn2c(=O)c1NC(=O)c1ccccc1	-10.3	-11.1
COc1cc(OC)cc(C(=O)Nc2cccc(C3SCC(=O)N3c3cccc(OC)c3)c2)c1 (stereo not given)	22.0	24.1
CCCCn1c(CNC(=O)C23CC4CC(CC(C4)C2)C3)nnc1SCCC	-2.0	-1.8

Already shown: entries from further up.
SMILES	NPYLR7 agonist	NPYLR7 agonist max-min
CCOC(=O)N1CCC(NCc2nc(C)c3c(n2)CCCC3)CC1	0.5	-4.2
Cc1cccc(CN(C(=O)c2ccc(F)cc2)C2CCC(NC(=O)C3CCN(C(=O)COc4ccccc4)CC3)CC2)c1 (stereo not given)	3.8	15.4
CCOC(=O)c1ccc(OC2CC3CCC(C2)N3C(=O)c2ccc(CSc3nc4ccc([N+](=O)[O-])cc4s3)cc2)cc1 (stereo not given)	21.1	11.8
COc1ccc2[nH]cc(C3=CCN(C(=O)C4CCCCC4)CC3)c2c1	-0.9	0.7
CCN1C(=O)C2(CC(=O)N(CCOc3ccccc3)C2=O)c2cc(OC)ccc21 (stereo not given)	11.4	0.2

Other structures.
SMILES	NPYLR7 agonist	NPYLR7 agonist max-min
COc1ccc(NC(=O)CCC2CCCN(C(=O)c3ccccc3SC)C2)cc1Cl (stereo not given)	2.8	0.0
O=C1c2cccc3c(Br)ccc(c23)C(=O)N1CCO	-3.0	-3.2
CCn1cc(Cl)c(C(=O)Nc2cccc(CN3CCOCC3)c2)n1	13.0	5.7
Clc1ccc2nc(C3CCCN3Cc3nc(-c4cnccn4)no3)[nH]c2c1 (stereo not given)	16.5	4.5
CS(=O)(=O)c1ccc2nc(NC(=O)c3ccc(S(=O)(=O)NCC4CCCO4)cc3)sc2c1 (stereo not given)	-7.0	-9.4
CCCCCCc1cc2c(-c3ccccc3)cc(=O)oc2cc1OCC(N)=O	-1.0	-1.3
COc1cn(CC(=O)Nc2ccc(C)cc2)c(CSc2ccccc2)cc1=O	-3.8	-12.3
COc1ccccc1C(=O)C1CCCN(C(=O)Cc2sc(C)nc2C)C1 (stereo not given)	0.0	-0.7
COc1cc(Br)c(NC(=O)N2CCCSCC2)cc1OC	2.8	1.7
O=C(O)c1ccccc1-c1c(-c2ccccc2)ncn1Cc1cccnc1	12.9	10.3
COc1cc2c(cc1OC)C1CCC3=C([C@H](C)OC3=O)N1CC2 (stereo not given in full)	3.1	0.9
O=C(NCC1COc2ccccc2O1)c1ccc(SC(F)(F)F)cc1 (stereo not given)	-4.8	-6.7
CCOc1ccc2[nH]c(=O)c(CN3CCCN(C(=O)C4CC4)CC3)cc2c1	10.3	9.2
CCNC(=O)C1(C)CCCN1Cc1ccccc1Cl (stereo not given)	1.9	-0.2
COC(=O)C1CCN(C(=O)CCc2c(C)nn(-c3nc(C)cc(=O)[nH]3)c2C)CC1	6.5	3.2
CCCn1cc(C2CCN(S(=O)(=O)c3ccc4ccccc4c3)CC2)c2ccccc21	23.4	16.2
CCN(CC1CCCO1)C(=O)c1cc(Cn2ccc3ccccc32)[nH]n1 (stereo not given)	-3.5	-4.2
N#CC1C(=N)Oc2c(oc(CO)cc2=O)C12C(=O)N(Cc1ccc(Cl)cc1)c1ccccc12 (stereo not given)	-0.3	-1.3
CC1CC(C)CN(S(=O)(=O)c2ccc(F)cc2F)C1 (stereo not given)	-0.4	-1.1
COc1ccccc1NC(=O)CCN1C(=O)c2cccc([N+](=O)[O-])c2C1=O	-6.5	-9.3
O=C(NCc1ccc2c(c1)OCO2)c1ccc(CSc2nnc(-c3ccncc3)n2Cc2ccccc2)cc1	17.8	14.7
CC(C)Cc1cc(CNC(=O)c2ccc3c(c2)CCCO3)no1	16.6	8.5
CCc1nc2n(n1)C(=O)C(C(c1cccc(F)c1)N1CCN(Cc3ccccc3)CC1)S2 (stereo not given)	-7.9	-11.1
CC(C)Sc1nc(-c2ccccc2)cc(=O)[nH]1	1.1	-0.9
COCCN(Cc1nccn1Cc1c(F)cccc1Cl)C(=O)c1cccs1	7.9	15.4
N#Cc1cc(C(=O)c2cc(Cl)cc(Cl)c2O)cn(-c2nccs2)c1=O	135.3*	133.4*
COc1ccc(C(=O)N(Cc2cccnc2)c2nc3c(Cl)cccc3s2)cc1OC	-25.7	-9.4
O=C(c1ccc(I)cc1)N1CCCc2ccccc21	4.2	0.4
CC1(C)NC(=O)N(c2ccc([N+](=O)[O-])c(C(F)(F)F)c2)C1=O	-7.9&-5.9&-3.3&0.4	-12.4&-8.8&-7.7&-11.1
CCc1ccc2nc(N(CCN(C)C)C(=O)CCS(=O)(=O)c3ccccc3)sc2c1	-9.6	-14.7
CC(C)(C)c1cc(N2CCOCC2)nc(SCc2cccc(C(=O)O)c2)n1	11.7	17.5
CC(c1ccc(-c2ccccc2CN2CCNCC2)cc1)N1CCOCC1 (stereo not given)	0.9	1.1
CCn1cc(C(CC(=O)N2CCN(c3ccccc3OC)CC2)c2cccc(C)c2)c2ccccc21 (stereo not given)	2.1	10.4
Cc1ccc(C(=O)NCCn2cc(SCC(N)=O)c3ccccc32)cc1C	10.0	10.1
CC1(C)CC2(C)OCCN2C(=S)N1 (stereo not given)	4.3	46.5
C=c1occc1=C1NN=C(SCC(=O)N(Cc2ccccc2)c2ccccc2)O1	-3.6	-2.6
CCCN1CCC(Cc2noc(CC3CNCCO3)n2)CC1 (stereo not given)	16.5	3.0
Clc1ccc(-c2nnn3c2nc(N2CCOCC2)c2ccccc23)cc1	-2.6	-6.8
Cc1c(C)n2c3c(=O)n(C)c(=O)n(C)c3nc2n1Cc1ccc(Cl)cc1Cl	13.3	5.9
CCCSc1ncc(CN2CCOC(CN)C2)cn1 (stereo not given)	2.6	9.9
COCCN(CC(=O)N1CCc2sccc2C1COc1ccccc1OC)C(=O)c1cccc(F)c1 (stereo not given)	-2.3	0.8
